# Assay outcomes deposited in PubChem BioAssay by several laboratories.
# HIV Env fusion: blocks HIV Env-driven cell-cell fusion. HeLa-JRFL Env/CEM21 cell fusion, luciferase. inhibition, % at 12.3 µM. 360,000 tested, 1.1% active. AID 651610;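 active = mean replicate inhibition score of at least 50 and every replicate individually at or above 50; inconclusive = only one of the two criteria met; inactive = mean below 50 and not all replicates reaching 50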;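 also: 0% = plate neutral controls and 100% = maraviroc near 300 nM; one replicate is shown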
# Rce1 inhib: blocks yeast Ras-converting enzyme; calls only; AID 2563; 290,000 tested, 0.27% active; yeast membranes, quenched prenylated peptide cleavage fluorescence;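 active = fall in fluorescence gain of 50% or more versus controls, with final raw signal at or below 3038400; inconclusive = same 50% fall but final raw signal above 3038400; inactive = fall in fluorescence gain under 50%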;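 also: plate controls were neutral control wells for no effect and wells lacking membranes for full effect; tested at 10 µM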
# Target sequence (Q03530 whole entry, looked up): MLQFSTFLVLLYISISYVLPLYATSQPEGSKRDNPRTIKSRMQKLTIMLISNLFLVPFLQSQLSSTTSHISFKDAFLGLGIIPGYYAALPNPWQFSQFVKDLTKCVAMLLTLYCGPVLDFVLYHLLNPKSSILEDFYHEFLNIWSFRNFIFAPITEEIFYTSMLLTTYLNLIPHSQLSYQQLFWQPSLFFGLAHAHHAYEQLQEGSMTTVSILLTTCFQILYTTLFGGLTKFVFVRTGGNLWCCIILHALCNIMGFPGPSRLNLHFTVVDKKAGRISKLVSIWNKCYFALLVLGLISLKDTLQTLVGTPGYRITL
# MT1-MMP act inh: blocks activation of human MT1-MMP; GFP/RFP ratio change, % at 20 µM; 360,000 tested, 0.061% active; AID 651647; HT1080 RFP-PRO-GFP cells, GFP/RFP ratio fluorescence, overnight; percent of plate control window, DMSO zero;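 active = GFP/RFP ratio change of at least 30% with cell ATP level not reduced by more than half and red fluorescence within 50% of control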; also: strong numbers were not always called active
#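 Material – HT1080 RFP-PRO-GFP cells · Control set – DMSO wells and RFP-L50D-GFP cells · Incubation – overnight cell settling, then overnight compound exposure, 37 °C, 5% CO2 · Compound dosing – single-point 20 µM compound, 1% DMSO · Read-out – GFP/RFP fluorescence ratio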
# CSC inhib: blocks cancer stem cells; cancer stem cell-like cells viability, luminescence; inhibition, % at 7.5 µM; 300,000 tested, 1.1% active; AID 2717;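 active = mean at 75% or more and at least half the replicates too; inconclusive = mean and replicates disagree; tested in HMLE shEcad cells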;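 also: 0% = median of negative and 100% = median of positive control wells; the first replicate is given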
# Yeast UUG start: yeast start codon fidelity modulation. S. cerevisiae UUG-firefly luciferase reporter, luminescence/redox ratio. activity score, % at 18.7 µM. 350,000 tested, 0.13% active;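 active = replicate mean at a twofold rise or more, about +100% in these data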;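 also: firefly luciferase made from a UUG start codon reports start codon fidelity; reporter light over untreated wells divided by growth signal over untreated wells; some hits fall short of that in this replicate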
# eIF4H inh: inhibitors of RNA binding by human eIF4H. Q15056. eIF4H fluorescence polarization binding assay. inhibition, % at 35 µM. 290,000 tested, 0.94% active. AID 2012;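 active = 50% or more with normal probe brightness, or confirmed in later tests; inconclusive = above 50% with abnormal brightness, or retests that disagree; inactive = below 50% or failed in later tests; about a fifth of its hits are not listed in these tables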;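 also: calls also rest on retests at 20 µM and on dose response follow-up; 0% = protein and probe with vehicle and 100% = probe without protein; strong numbers were not always called active; many hits fall short of the cut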
# PABP polyA inh: blocks human PABP binding to poly(A) RNA. P11940. AID 2014. inhibition, % at 35 µM. fluorescence polarization. 290,000 tested, 1% active;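 active = 50% or more with normal probe brightness, or confirmed in later tests; inconclusive = above 50% with abnormal brightness, or retests that disagree; inactive = below 50% or failed in later tests; about a fifth of its hits are not listed in these tables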;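 also: calls also rest on retests at 20 µM and on dose response follow-up; controls were probe without protein and protein plus probe with vehicle; some compounds called inactive have numbers as strong as hits; many hits fall short of the cut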
# eIF4H inh retest: second read-out of eIF4H inh, no call of its own (marks repeat the call); inhibition, %; compound at 20 µM; confirmation average;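 mean of two retest wells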
# PABP polyA inh retest: second read-out of PABP polyA inh, no call of its own (marks repeat the call); inhibition, %; compound at 20 µM; confirmation repeats;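 mean of two retest wells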
# MT1-MMP act inh RFP: also measured in MT1-MMP act inh; calls as there; RFP signal change, %; measured here: RFP expression control read;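 0 = vehicle wells; hits needed this value within 50% of zero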
# The depositor's hits bear a star; i = inactive; ? = inconclusive; . = not tested or not shown; & = joins results of further samples.
SMILES,HIV Env fusion,Rce1 inhib,MT1-MMP act inh,MT1-MMP act inh RFP,CSC inhib,Yeast UUG start,eIF4H inh,PABP polyA inh,others
Cc1ccc(S(=O)(=O)Nc2c(C)n(C)n(-c3ccccc3)c2=O)cc1,18.0&-56.8,i,4.2&2.8,2.9&3.6,2.5,-11.6&-10.5,-1.2&-1.6,5.2&-1.0,
O=C(O)c1cc(-c2ccc(Br)s2)nc2ccccc12,-21.8,i,-3.9,3.3,8.5,-10.4,4.3,5.1,
O=C(CN(C(=O)CNS(=O)(=O)c1ccccc1)c1ccc(Cl)cc1)NCC1CCCO1 (stereo unspecified),-1.9,i,-0.3,1.8,.,-8.7,-2.2,5.9,
Cc1occc(=O)c1OCc1c(Cl)cccc1Cl,-2.5,i,0.5,3.9,-5.4,-8.1,2.8,-5.0,
COc1ccc(-c2csc(CCN3N=C(C)CC3=O)n2)cc1,-0.9,i,0.0,-5.4,-12.0,-11.1,3.9,25.2,
COc1cccc(C(=O)CN2C3=NCCCN3c3ccccc32)c1,-6.9,i,12.0,7.3,.,-12.1,-8.3,3.7,
Cn1nnnc1SCc1ccccc1[N+](=O)[O-],-2.3,i,-0.4,3.6,-4.2,-22.7,-12.0,-7.9,
CCOC(=O)CN(C(=O)Cn1nnc(-c2ccc(OC)cc2)n1)C(C(=O)NC1CCCC1)c1ccc(F)cc1 (stereo unspecified),.,.,-2.6,-7.7,-8.3,-8.1,2.9,-3.4,
N#C/C(=C\c1cn(-c2ccccc2)nc1-c1cc2ccccc2o1)c1nc2ccccc2[nH]1,-41.8,i,-100.4,-0.4,-6.4,-17.9,9.4,2.4,
COc1ccc(CC(=O)OCn2nnc3ccccc3c2=O)cc1,.,i,-1.5,-0.2,0.9,49.2,-3.3,-0.9,
C/C(Cc1ccccc1)=N\NC(=O)CNC(=O)c1ccccc1F,11.2,i,1.5,2.7,0.2,-11.3,-14.0,1.0,
Cc1cccc(COCC(CC(C)C)N2CCN(C(=O)c3ccc(C(F)(F)F)cc3)CCC2=O)c1 (stereo unspecified),82.9*,i,0.4,-5.3,-23.6,5.5,-1.8,0.0,
Cc1cccc2cncc(OCc3nnc(SC(F)F)n3C)c12,-17.4,i,1.4,3.7,8.1,.,-3.0,-2.9,
Cc1nn(CCC(=O)Nc2cccc(C#N)c2)c(C)c1S(=O)(=O)N1CCCCC1,11.3,i,6.9,1.5,-14.7,-0.6,-7.4,0.6,
CCOC(=O)c1[nH]c(C)c(C(=O)NCc2cccnc2)c1C,5.7,i,-0.2,6.5,.,15.8,-0.1,1.9,
Cc1cc(Oc2ccc(=O)n(C)n2)nc(Oc2ccc(=O)[nH]n2)n1,.,i,-1.8,0.4,.,-5.8,-0.7,-8.3,
COc1ccc(-n2c(=O)c(CCC(=O)N3CCC(C)CC3)nc3ccccc32)cc1,5.5,.,7.5,4.3,-18.9,4.1,.,.,
Cc1ccc(NCC(=O)Nc2cccc(S(=O)(=O)N(C)C)c2)cc1S(=O)(=O)N1CCCCCC1,45.2,i,-5.4,-27.2,-18.3,.,.,.,
CCC(C)(C)NC(=O)C(c1cccs1)N(C(=O)c1ccn[nH]1)c1cccc(OC)c1 (stereo unspecified),-1.8,i,1.4,4.4,-11.0,.,1.4,-10.8,
COc1ccc(C)c2sc(N(CCCN(C)C)C(=O)CS(=O)(=O)c3ccc(F)cc3)nc12,12.1,i,2.2,3.0,-0.3,17.2,.,.,
Cn1cc(SCC(=O)N2CCOCC2)c2ccccc21,-34.0,i,-0.9,2.6,-15.2,0.8,1.4,8.9,
COc1cc(C(=O)NNC(=S)NC(=O)c2ccc(Cl)cc2)cc(OC)c1OC,30.1,i,12.7,1.4,15.9,-17.8,11.5*,90.9,eIF4H inh retest=81.1*;PABP polyA inh retest=20.4
CN(C(=O)c1cccc(NC(=O)Cc2cccc(NC(=O)C3CCN(C(=O)C4CCCC4)CC3)c2)c1)C1CC1,10.9,.,1.3,-0.6,.,6.3,.,.,
Cc1ccc2c(c1)C1CN(C)CCC1N2C(=O)COc1ccccc1F (stereo unspecified),2.0,i,2.7,2.4,10.6,-3.0,2.9,4.0,
COc1cc(/C=C/c2cccc[n+]2C)ccc1OCC(=O)Nc1cccc(Cl)c1,-15.3,i,-7.9,-15.0,.,1.3,-7.3,38.8,

# Compounds from the list above that contain a thiophene ring, fused or not, in the order listed:
SMILES,HIV Env fusion,Rce1 inhib,MT1-MMP act inh,MT1-MMP act inh RFP,CSC inhib,Yeast UUG start,eIF4H inh,PABP polyA inh,others
O=C(O)c1cc(-c2ccc(Br)s2)nc2ccccc12,-21.8,i,-3.9,3.3,8.5,-10.4,4.3,5.1,
CCC(C)(C)NC(=O)C(c1cccs1)N(C(=O)c1ccn[nH]1)c1cccc(OC)c1 (stereo unspecified),-1.8,i,1.4,4.4,-11.0,.,1.4,-10.8,

# More records follow:
SMILES,HIV Env fusion,Rce1 inhib,MT1-MMP act inh,MT1-MMP act inh RFP,CSC inhib,Yeast UUG start,eIF4H inh,PABP polyA inh,others
CN(C)S(=O)(=O)N(Cc1ccc(Br)cc1)c1ccccc1,?,i,-2.3,-4.1,-6.4,-14.1,-7.4,-4.5,
COc1cc(NC(=S)NNC(=O)CC(C)C)c(OC)cc1Cl,-11.0,i,-2.8,0.2,-5.4,.,6.6,0.4,
CN1CCN(CC(C)(C)NS(=O)(=O)c2ccccc2)CC1,-89.1,.,-4.3,4.4,-21.3,-19.4,.,.,
C[C@H](CO)N1C[C@H](C)[C@@H](CN(C)C(=O)CCCN(C)C)OCc2cn(nn2)CCCC1=O,-12.9,.,1.1,1.7,.,-16.1&-1.0,.,.,
Cc1csc(CN(C)C(=O)CC2C(=O)NCCN2CC(C)(C)C)n1 (stereo unspecified),0.6,i,-2.0,2.2,-3.2,-2.6,8.2,14.2,
N=c1ccn(O)cc1CCc1ccccc1,-34.3,.,0.0,4.8,.,-15.7,.,.,
O=C(OCC(=O)N1CCCC1=O)c1nc(Cl)c(Cl)c(Cl)c1Cl,-39.0,i,-0.9,2.5,11.7,-6.3,19.0,26.5,
Cn1c(=S)oc2ccccc21,8.0,i,3.6,-0.4,-10.2,-2.7,-5.4,11.7,
O=C(NCCc1ccccc1)c1c[nH]c2c(F)cccc2c1=O,-6.0,i,3.8,-3.7,-4.3,-1.4,-0.9,-4.7,
Cc1cc(C)cc(CC(=O)N2CCC2(C)C(=O)NS(=O)(=O)c2cccc(F)c2)c1 (stereo unspecified),7.7,.,1.1,8.0,.,-0.7,.,.,
CCCCSCCCNC(=O)c1cn(CC)c2ccc(S(=O)(=O)N3CCOCC3)cc2c1=O,11.2,i,0.5,-2.1,-0.4,-11.2,-12.7,9.4,
CC(C)(C)c1ccccc1OCC(=O)NCCC(=O)O,-27.7,i,-0.1,4.8,0.9,-12.1,7.1,1.7,
Cc1cccc(N=Nc2ccc(O)c3ncccc23)c1,30.6,i,11.9,-22.7,99.0*,.,22.0,3.8,
CC(C)(C)c1ccc(C(=O)NCC(=O)N2CCCCCC2)cc1,6.7,i,2.3,0.4,-5.0,-0.4,0.7,-7.1,
O=c1[nH]c(CSc2nnc(-c3ccccc3)n2C2CCCCC2)nc2ccccc12,1.6,i,2.3,0.1,-0.7,.,-0.9,-19.3,
O=c1[nH]c(CSc2nc(-c3ccccc3)cs2)nc2ccccc12,14.9,i,4.6,-1.0,-12.7,.,-8.8,-8.1,
CN(C)CC(=O)Nc1ccc(S(N)(=O)=O)cc1,-73.7,i,5.1,2.6,-7.8,-23.3,-4.3,19.3,
COC(=O)C1(C)NC(c2ccccc2F)C2C(=O)N(c3ccccc3)C(=O)C21 (stereo unspecified),-3.5,i,-3.9,1.5,2.4,-19.7,-0.4,-7.2,
Cc1noc(C)c1S(=O)(=O)NCCN1CCN(c2ccccc2)CC1,-8.8,i,5.6,-5.2,3.9,-6.0,9.9,3.8,
COc1ccc(OC)c(Nc2nc(-c3sc(NC(=O)C(C)(C)C)nc3C)cs2)c1,29.1,i,6.3,-10.2,51.1,-21.1,5.7,3.5,
Cc1onc(-c2c(F)cccc2Cl)c1C(=O)NC1=NCCS1,-57.5,i,-2.1,0.9,-8.2,.,7.1,-9.9,
CN(C)C(=O)CSc1nc2ccc(C(=O)c3ccccc3)cc2[nH]1,32.6,i,-1.3,-4.4,-2.3,-4.3,0.1,3.1,
COCC(=O)N(Cc1cc2cc(C)ccc2[nH]c1=O)c1ccccc1,-14.5,i,0.1,-0.9,-3.3,1.0,-3.4,1.6,
Cc1cccc(-n2nnc(C(=O)Nc3ccc(F)cc3)c2N)c1,-68.6,i,1.4,-3.4,6.1,-6.7,-4.4,5.5,
O=C(NCCCN1CCCC1=O)NC12CC3CC(CC(C3)C1)C2,-4.2,i,2.7,5.1,-3.3,4.9,-3.0,-2.1,
SMILES,HIV Env fusion,Rce1 inhib,MT1-MMP act inh,MT1-MMP act inh RFP,CSC inhib,Yeast UUG start,eIF4H inh,PABP polyA inh,others
COCCn1c(N)c(N(Cc2ccccc2)C(=O)CSCC(=O)Nc2ccc(OC)cc2)c(=O)[nH]c1=O,1.7,i,-2.5,3.1,10.2,.,.,.,
COc1ccc(C(=O)CSc2nnc(CNC(=O)c3ccc(OC)c(OC)c3)n2C)cc1,.,i,-6.2,-1.3,-3.2,.,-6.7,-8.9,
C=CCNC(=S)NNC(=O)C(CCCC)CC(C)O (stereo unspecified),.,i,0.3,2.0,-9.1,-32.3,-3.0,-2.3,
CC1CCCCC1NS(=O)(=O)c1ccc(S(=O)(=O)N2CCN(CCC#N)CC2)cc1 (stereo unspecified),-8.4,i,3.0,0.8,-14.9,-17.2,-8.2,0.2,
N#CCCN(CCC#N)C(=O)COc1ccc(Cl)cc1Cl,-83.9,i,2.1,0.0,11.4,-8.0,4.9,-5.1,
Cc1cc(F)c(F)c(C(=O)N2CCCCC2C)c1Cl (stereo unspecified),22.8,i,1.6,3.1,-13.4,-19.1,5.5,10.0,
CCn1cc(Cl)c(C(=O)NNC(=O)CCn2nc(C)c([N+](=O)[O-])c2C)n1,-7.1,i,3.4,4.8,2.8,.,1.5,4.2,
C/C(N)=C(\C#N)C(=O)NCCc1ccccn1,.,i,4.0,4.7,-14.7,-21.0,2.7,-10.9,
O=C(Nc1cccnc1Cl)c1cc(-c2ccco2)on1,-128.0,i,0.1,4.5,-3.0,.,-10.9,-0.9,
COC(=O)CSc1nnc(-c2ccc(OC)c(OC)c2)o1,0.6,i,-2.3,0.6,-2.8,.,0.6,-11.2,
CCOc1ccccc1C(=O)NN1C(=O)C2CCCCC2C1=O (stereo unspecified),7.4,i,0.9,4.3,-22.9,.,-5.6,-10.3,
CCOc1ccc(S(=O)(=O)N(C)CC(=O)NC2CC2)cc1,-6.8,i,-0.9,0.6,-6.7,-10.9,-11.3,9.2,
O=C1OC(/C(=C\Nc2ccc(F)cc2F)[N+](=O)[O-])c2ccccc21 (stereo unspecified),17.3,i,-6.4,-3.0,-0.7,.,-1.3,-5.5,
CCN(C(=O)CC(C)C)c1nnc(Cn2nnc3ccccc32)s1,25.2,i,-28.7,-37.4,7.1,.,12.8,13.9,
